IEC-6 cytotox – IEC-6 cytotoxicity, counter-screen for KLF5 inhibitors; luminescence viability; inhibition, % at 5 µM; actives 0.78% (n = 290,000); in the data active means inhibition above about 22%;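 further: 0% = plate median of test compound wells and 100% = cytotoxic reference compound wells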
aSyn 5UTR inh – MLPCN primary screen, SNCA 5' untranslated region; alpha-synuclein 5'UTR reporter, inhibitor activity; inhibition, % (tested at 7.5 µM); AID 1813; actives 0.82% (n = 300,000); in the data active means inhibition above about 60%;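 further: H4 neuroglioblastoma cells stably carrying SNCA 5'UTR luciferase fusion; 0% = DMSO wells and 100% = positive control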
HSP90 refold inh – inhibitors of HSP90 luciferase refolding in rabbit reticulocyte lysate; luciferase refolding luminescence, 3 h; inhibition, % at 5.6 µM; actives 0.91% (n = 290,000); AID 1789;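 active means inhibition above the screen-wide mean plus 3 SD, computed separately per campaign, cut at about 16% in these data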;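 further: 0% = DMSO wells and 100% = 60 µM geldanamycin wells; inhibitors lower the luminescence because luciferase stays unfolded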
SKKanGAS inh – blocks kanamycin growth of S. pyogenes SKKanGAS strain; actives 1.3% (n = 300,000); inhibition, % at 7.5 µM; BacTiter-Glo, 6 h;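 active means mean replicate score, as percent of positive control median, at least 50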;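 further: strain carries kanamycin resistance gene driven by streptokinase promoter and grows in 40 µg/ml kanamycin; loss of luminescence reflects streptokinase promoter inhibition or plain growth inhibition; 0% = median of DMSO wells and 100% = positive control at its reference dose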
KLF5 inh – suppresses KLF5 promoter-driven expression | DLD-1 KLF5 promoter-luciferase reporter, luminescence | AID 1700 | inhibition, % at 5 µM | actives 0.23% (n = 290,000);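 active means inhibition above a per-plate limit of that plate's mean compound inhibition plus 3 SD, cut at about 60% in these data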;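 further: 0% = DMSO wells and 100% = LY294002 at 200 µM; higher means less KLF5 promoter-driven luciferase light; inactives centre near -14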
AI-2 QS mod – modulates the Vibrio harveyi AI-2 quorum sensing system | actives 0.4% (n = 300,000) | AID 2094 | Vibrio harveyi JMH597 AI-2 luminescence/OD600 ratio, 9 h; stronger effect = lower value; strain lacks LuxN and CqsS sensors; 0 = neutral-control median | activity change, % at 7.5 µM; in the data active means activity change below about -75%, passing the limit was not always enough;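 further: luminescence divided by OD600 gain over 9 h not by final OD600 alone; inactives centre near 13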
* marks the source's active call; other numbers are inactive results; . = no result given. This is a subset; rates above refer to the full screens.

SMILES	IEC-6 cytotox	aSyn 5UTR inh	HSP90 refold inh	SKKanGAS inh	KLF5 inh	AI-2 QS mod
COc1cccc(-c2nc3ccc(N4CCN(C)CC4)cc3[nH]2)c1	0	69*	61*	5	31	19
COc1ccc(Cc2nccc3cc(OC)c(OC)cc23)cc1OC	15	1	6	-7	-1	19
COC(=O)N1C(c2ccccc2)C1c1ccccc1 (configuration not stated)	-15	-5	-3	-11	-24	29
COc1ccc(S(=O)(=O)NCc2ccc(C(=O)N3CCC4(CC3)OCCO4)cc2)cc1	-3	35	3	4	2	12
CC(C)N(CCC(C(N)=O)(c1ccccc1)c1ccccn1)C(C)C (configuration not stated)	2	7	0	2	-18	17
C#CCN(C)C(C)Cc1ccccc1 (configuration not stated)	2	-9	7	-1	-16	26
O=C(O)COc1ccc(Cl)cc1Cl	.	-17	.	-6	.	41
[N-]=[N+]=CC(=O)OC[C@H](N)C(=O)O	-1	-31	0	14	-7	6
O=C(N/N=C/c1c(O)n(Cc2ccccc2)c(=O)[nH]c1=O)c1ccccc1	4	-37	2	57*	-40	32

Compound profiles, as listed above:
COc1ccc(Cc2nccc3cc(OC)c(OC)cc23)cc1OC is entered as IEC-6 cytotox: 15; aSyn 5UTR inh: 1; HSP90 refold inh: 6; SKKanGAS inh: -7; KLF5 inh: -1; AI-2 QS mod: 19
O=C(N/N=C/c1c(O)n(Cc2ccccc2)c(=O)[nH]c1=O)c1ccccc1 is entered as IEC-6 cytotox: 4; aSyn 5UTR inh: -37; HSP90 refold inh: 2; SKKanGAS inh: 57*; KLF5 inh: -40; AI-2 QS mod: 32

Two entries picked at random from the list so far:
SMILES	IEC-6 cytotox	aSyn 5UTR inh	HSP90 refold inh	SKKanGAS inh	KLF5 inh	AI-2 QS mod
COC(=O)N1C(c2ccccc2)C1c1ccccc1 (configuration not stated)	-15	-5	-3	-11	-24	29
COc1cccc(-c2nc3ccc(N4CCN(C)CC4)cc3[nH]2)c1	0	69*	61*	5	31	19

Four successive compounds from above:
SMILES	IEC-6 cytotox	aSyn 5UTR inh	HSP90 refold inh	SKKanGAS inh	KLF5 inh	AI-2 QS mod
C#CCN(C)C(C)Cc1ccccc1 (configuration not stated)	2	-9	7	-1	-16	26
O=C(O)COc1ccc(Cl)cc1Cl	.	-17	.	-6	.	41
[N-]=[N+]=CC(=O)OC[C@H](N)C(=O)O	-1	-31	0	14	-7	6
O=C(N/N=C/c1c(O)n(Cc2ccccc2)c(=O)[nH]c1=O)c1ccccc1	4	-37	2	57*	-40	32

Source: PubChem BioAssay
